# S aureus helic – inhibitors of S. aureus replicative helicase, primary screen, biochemical, fluorescence unwinding readout; replicative DNA helicase (DnaC/DnaB), Staphylococcus aureus; AID 485395, 2010; inhibition, %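 (tested at about 80 µM)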; 0.05% of 120,000 active; purified S. aureus helicase, fluorescence unwinding assay; about half of the hits fall short of the stated cut;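 active = both duplicates at 50% or more, or one of them with a favoured structure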;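 also: 0% = mean of negative control wells and 100% = mean of positive control wells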
# MgrA-DNA mod – S. aureus MgrA activity modulators, primary screen, biochemical, S. aureus Newman, fluorescence polarization. MgrA-DNA binding. inhibition, %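 (about 10 µg/mL by stock and volumes)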. 0.13% of 84,000 active. AID 602314, 2012;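 active = above 50% in either of two replicates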;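 also: 0% = protein plus DNA without compound and 100% = DNA alone without protein; higher means less MgrA bound to DNA so lower polarization; one replicate is shown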
# * = called active by the depositor; / = no result given; & = joins results of further samples.
# Every second line gives: MgrA-DNA mod, S aureus helic
CCn1cc(C(=O)OC)c(=O)c2cc(C(F)(F)F)ccc21
    0.0, /
COc1cccc(NC(=S)C(C#N)C(=O)N2CCCC2)c1 (stereo not drawn)
    -0.1, /
O=C(Cc1ccccc1)c1ccc(O)cc1
    -0.3, /
CCN(Cn1ncn(C)c1=S)C1CCCCC1
    /, -8
CCOC(=O)c1c(C)n(-c2ccc(OCC)cc2)c2ccc(OC(=O)COc3ccccc3)cc12
    -0.9, /
Cc1ccc(C(=O)CN2C(=O)CCC2=O)cc1
    0.1, /
COc1ccc2nc(NC(=O)c3ccc(C)cc3)sc2c1
    /, -10
CCc1cc(C(=O)OCC(=O)Nc2ccc(C)cc2C)c2ccccc2n1
    1.0, -8
Clc1ccc(-c2nnc(CN(CCOc3cc(Cl)ccc3Cl)C3CC3)o2)cc1
    /, 8
CCCCCCc1c(O)nc(SCCN(CC)CC)n(-c2ccccc2)c1=O
    /, -5
N#Cc1cccc(OCC(=O)C23CC4CC(CC(C4)C2)C3)c1
    /, -5
O=C(CSc1nc(-c2ccccc2)nc2c1CCCC2)N/N=C/c1ccco1
    /, -19
FC(F)(F)c1cccc(NC(=S)N2CCCCC2)c1
    -2.2, -1
COC(=O)NNc1ccccc1
    /, 10
CC1=C(CCC2(C)OCCO2)C(C)(C)CCC1
    -0.1, 24
NC(=O)CCS(=O)(=O)CCN1CCCCC1
    /, 0
COc1ccc(CNC(=O)c2ccc(Br)o2)cc1
    /, 10
CC1=C(C)C(=O)N(c2ccc(Cl)cc2)C1=O
    -1.6, /
CC1CCN(CNC(=O)c2cc3ccccc3o2)CC1
    -1.8, -6
Cc1ccc(NC(=O)/C=N/O)cc1
    -1.9, 7
CC(c1n[nH]c(=S)n1-c1ccccc1)N(C)C (stereo not drawn)
    /, -25
CC(C)(C)OC(=O)N1CCC(C(=O)OCC(=O)Nc2ccc(F)cc2)CC1
    /, -11
CC1CCN(c2nc(Nc3ccccc3)c3cnn(C)c3n2)CC1
    /, 29
O=C(O)C1CCCCC1C(=O)Nc1ccc(C(=O)N2CCCCC2)cc1 (stereo not drawn)
    -2.8, -7
COc1ccccc1NC(=O)/C=C\c1ccco1
    16, 3
O=C(c1cnn(-c2cccc(F)c2)c1-n1cccc1)N1CCCC1
    /, 5
CC(=O)Nc1ccc(NCC(=O)c2ccccc2)cc1
    -2.1, 12
O=C(NCC1CC1)c1ccccc1NS(=O)(=O)c1cccc2nonc12
    -0.3, /
C=CCN(C(=O)CSc1nc2c(sc3ccccc32)c(=O)n1Cc1cccnc1)c1ccccc1
    -0.3, -1
COc1ccc(CNC(=O)c2oc3ccccc3c2-n2cccc2)cc1
    -0.9, /
COc1ccc(C2Nc3cc(C(F)(F)F)c(S(N)(=O)=O)cc3S(=O)(=O)N2)cc1 (stereo not drawn)
    /, 11
N=C1S/C(=C\c2ccc(F)cc2)C(=O)N1c1nccs1
    /, 18
O=C(O)C1C2C=CC(C2)C1C(=O)N1CCc2ccccc21 (stereo not drawn)
    1.3, 4
CC1CCCCN1c1ncnc2onc(-c3ccc(Cl)cc3)c12 (stereo not drawn)
    /, -16
NC(CCO)c1cccc(Cl)c1 (stereo not drawn)
    -2.7, /
N#CCCNc1ccc2c(c1)OCCO2
    /, -1
CC(C)(C)c1ccc2c(c1)OCCOCCOCCO2
    2.2, -5
O=C(Nc1nonc1-c1nc2ccccc2[nH]1)c1ccncc1
    /, 4
Cc1ccc(-c2csc(CC#N)n2)cc1
    -4.6, /
Oc1c(/C=N/n2cnnc2)sc2ccccc12
    2.2, /
COc1cccc(C2CC(=O)Nc3cc4c(cc32)OCO4)c1 (stereo not drawn)
    /, 2
Cc1ccc(C)c(NCC(=O)NC2CCCCC2)c1
    /, 7
O=C1CC(c2nc3ccccc3[nH]2)CN1c1ccc(F)cc1 (stereo not drawn)
    -0.3, 4
CC(C)c1ncc(C(O)c2cccc3ccccc23)n1C (stereo not drawn)
    -0.1, -1
O=C(Nc1ccc(C2SCCS2)cc1)c1ccccc1F
    0.5, /
O=c1c2c3c(sc2ncn1/N=C/c1cc(Br)ccc1O)CCCC3
    0.5, -13
CN(C)c1ccc(C(CNC(=O)c2ccccc2)N(C)C)cc1 (stereo not drawn)
    /, 20
Cc1ccc(C(=O)N/C(=C\c2ccco2)C(=O)N(C)C)cc1
    2.5, 16
CN(C(=O)c1cc(-c2ccc(Cl)c(Cl)c2)on1)c1ccccc1
    -0.1, 5
CCCC(=O)Nc1ccc2c(c1)ncn2CC
    0.7, 9

# Other entries
# Every second line gives: MgrA-DNA mod, S aureus helic
CSc1nc(=O)cc(N)n1-c1ccccc1
    /, 2
COc1ccc(C(=O)NCCNc2nc3c(C)cccc3cc2C#N)cc1OC
    -1.1, 15
CCCCC[C@H](O)CC[C@H]1[C@H](O)CC(=O)[C@@H]1CCCCCCC(=O)O
    2.6, /
O=C(/C=C/c1ccccc1)Nc1ncnc2sc3c(c12)CCC3
    0.7, 18
CC(=O)OCC(=O)c1ccc2ccn(C(C)=O)c2c1
    -3.6, 10
CNC(=O)c1cnn(-c2c(Cl)cc(Cl)cc2Cl)c1COC
    -1.8, /
O=C1CC(c2ccccc2)CC2=C1C(c1ccccc1)Nc1ccccc1N2 (stereo not drawn)
    -2.5, -3
CCOc1ccc(CCNC(=O)CN2CCN(Cc3ccccc3F)C2=O)cc1OCC
    /, 37
Cc1ccccc1S(=O)(=O)Cc1ccc(C(=O)NC(C)c2ccccc2)o1 (stereo not drawn)
    -0.9, 10
NNC(=O)CC1Sc2ccccc2NC1=O (stereo not drawn)
    0.1, /
CC1Cc2ccccc2N1C(=O)/C=C/c1cccc(F)c1 (stereo not drawn)
    /, 19
Cc1ccc(C(=O)COc2cccc(-c3cnc4ccccc4n3)c2)cc1
    /, 6
O=S(=O)(c1ccccc1C(F)(F)F)N1C=CC(C(F)(F)F)=NCC1
    /, -11
O=C(CSc1nc2ccccc2s1)N1CCN(CCO)CC1
    /, -5
O=C(O)c1ccccc1C(=O)Nc1ccccc1F
    /, -25
C=CCNC(=O)c1ccc(C(F)(F)F)nc1C
    -0.2, /
O=[N+]([O-])c1ccc(Oc2cccc(C(F)(F)F)c2)nc1
    1.7, /
Cc1ccc(S(=O)(=O)N2CCOCC2)cc1
    /, -9
CCOc1cc2c(cc1OCC)C1C(C(=O)N3CCCC3)c3ccccc3C(=O)N1CC2 (stereo not drawn)
    /, 12
CCOC(=O)CC1Sc2ccccc2NC1=S (stereo not drawn)
    5.5, /
COc1ccc(CN2CCN(C(=O)c3ccccc3F)CC2)cc1OC
    /, -13
CN(C(=O)CCN1C(=O)C(C)(C)Nc2ccccc21)c1ccccc1
    1.1, 0
Cc1cc(C)nc(NNC(=S)Nc2ccccc2C)n1
    /, -19
CCOc1ccc(N(C)C(=O)CCc2nnc3ccc(N4CCCC4)nn23)cc1
    /, -31
Nc1ccccc1SC1CC(=O)N(c2ccc3c(c2)OCO3)C1=O (stereo not drawn)
    0.4, /
CN(CC(N)=O)S(=O)(=O)c1ccc2ccccc2c1
    1.1, 8
Cc1cccc(N2C(=O)NC3CC2(C)Oc2ccccc23)c1 (stereo not drawn)
    -1.3, 2
C=CCn1c(C(CC)CC(C)(C)O)n[nH]c1=S (stereo not drawn)
    0.6&3.1, 4&-1
Cc1nn(CCCC(=O)N2CCCCC2)c(=O)c2c1sc1ccccc12
    /, 19
COC(=O)C(C)Sc1nnc(-c2ccc(Br)cc2)o1 (stereo not drawn)
    -0.8, 20
c1ccc(CCNc2nsc3ccccc23)cc1
    /, -9
O=C(Nc1ccc(F)cc1F)NN1CCOCC1
    -2.2, 16
S=C(N/N=C/c1ccc2c(c1)OCO2)NC1CC2CCC1C2 (stereo not drawn)
    -1.4, /
CCc1cc2c(=O)c(-c3nc(C)cs3)c(C(=O)O)oc2cc1O
    /, -28
O=C(COC(=O)C1(c2ccc(Cl)cc2)CCCC1)NC1CC1
    3.3, -7
O=S(=O)(NCc1ccc(Cl)cc1)c1ccccc1
    -0.5, /
NCCNc1ncnc2scc(-c3ccccc3)c12
    0.8, /
COc1ccccc1OC(=O)c1ccc(SC)cc1OC
    /, 6
Cc1ccc(-c2n[nH]c(=S)c3ccccc23)cc1S(=O)(=O)N1CCN(C)CC1
    0.2, 10
O=C(O)c1ccccc1S(=O)(=O)CC(=O)N1CCCCC1
    -2.7, 13
CC1CN(c2ccccc2)C(=O)CS1 (stereo not drawn)
    4.7, -5
CC(Oc1ccccc1)C(=O)NC1CCSC1=O (stereo not drawn)
    -1.4, 9
O=C(c1ccccc1)c1ccc2nc(N3CCCC3)c3nncn3c2c1
    /, 18
S=C(NCCCn1ccnc1)Nc1cc(Cl)ccc1Cl
    -1.5, /
CCOC(=O)c1ccc(NC(=S)N2CCN(C(=S)Nc3ccc(C(=O)OCC)cc3)CC2)cc1
    1.3, /
O=C(Nc1ccc(Cl)cc1)C(=S)N1CCOCC1
    19, 3
Cc1nn(-c2ccc(Cl)cc2)c2sc(C(=O)OCC(=O)N3CCNC3=O)cc12
    /, -14
O=C(CCNC(=O)c1ccco1)NC1CCCCCC1
    /, -8
CN(Cc1ccco1)C(=O)/C=C/c1cn(Cc2ccccc2)nc1-c1ccccc1
    /, 8
COCCn1c(=S)[nH]c2ccccc2c1=O
    1.4&2.5, 6&-2

# Three entries from above, with each value named:
CC(Oc1ccccc1)C(=O)NC1CCSC1=O (stereo not drawn)
  MgrA-DNA mod: -1.4 | S aureus helic: 9

O=C(c1ccccc1)c1ccc2nc(N3CCCC3)c3nncn3c2c1
  MgrA-DNA mod: / | S aureus helic: 18

S=C(NCCCn1ccnc1)Nc1cc(Cl)ccc1Cl
  MgrA-DNA mod: -1.5 | S aureus helic: /

# (next part)
# Every second line gives: MgrA-DNA mod, S aureus helic
Cc1ccn(-c2ccc(NC(=O)C3CC3)cc2)n1
    -2.5, 1
O=C(/C=C/c1ccc2c(c1)OCO2)N1CCN(c2n[nH]c(=O)[nH]c2=O)CC1
    /, 14
COc1cc2c(cc1OC)C1=C(C#N)CC/C(=N\S(=O)(=O)c3ccccc3)N1CC2
    /, -7
CCN1C(=Nc2ccc(O)cc2)SC/C1=C\C(=O)OC
    /, -20
COC(=O)CNC(=O)c1ccc(OC)cc1
    /, -15
Cc1ccc(-c2csc(COC(=O)C(C)(C)C)n2)cc1
    -0.8, /
C=CCNC(=S)Nc1sc2c(c1C(=O)OCC)CCCCC2
    2.5, 7
COc1ccc(-n2c(C)cc(C(=O)COC(=O)c3nccnc3N)c2C)cc1
    /, -6
O=C(COC(=O)c1ccc(N2C(=O)c3ccccc3C2=O)cc1)c1ccccc1
    -1.3, 10
O=[N+]([O-])c1cccc2cnccc12
    -2.4, /
COc1cc2nc(SCC#N)n3nc(CCn4c(C)nc5ccccc54)nc3c2cc1OC
    /, 8
CC1(C)CC2CC(C)(CN2C(=O)COC(=O)c2ccc3c(c2)S(=O)(=O)N=C2CCCCCN23)C1 (stereo not drawn)
    /, -6
COc1cc(/C=C2/SC(=Nc3cccc(Cl)c3Cl)NC2=O)cc(OC)c1OC
    /, -12
CC(O)CN(N)C1=NS(=O)(=O)c2ccccc21 (stereo not drawn)
    0.7, -20
CC1=C(C#N)C(=O)NC(=O)/C1=C\c1ccc(-c2ccccc2)o1
    -2.8, -4&10
Clc1ccccc1CN1COc2cc3c(cc2C1)OCO3
    0.6, -3
COc1cccc(-n2ccnc2SCC(=O)Nc2nccs2)c1
    /, 10
Cc1nnc(SCC(=O)O)n1/N=C/c1ccccc1
    /, -18
c1ccc2c(c1)n1cnnc1c1nncn21
    -1.4, 8
COc1ccc(CCN2C(=O)CC(N3CCN(C)CC3)C2=O)cc1OC (stereo not drawn)
    /, -10

# Ordered by count of non-hydrogen atoms (low to high): 7 of the compounds above.
# Every second line gives: MgrA-DNA mod, S aureus helic
c1ccc2c(c1)n1cnnc1c1nncn21
    -1.4, 8
Cc1nnc(SCC(=O)O)n1/N=C/c1ccccc1
    /, -18
Clc1ccccc1CN1COc2cc3c(cc2C1)OCO3
    0.6, -3
CC1=C(C#N)C(=O)NC(=O)/C1=C\c1ccc(-c2ccccc2)o1
    -2.8, -4&10
COc1ccc(CCN2C(=O)CC(N3CCN(C)CC3)C2=O)cc1OC (stereo not drawn)
    /, -10
COc1cc2nc(SCC#N)n3nc(CCn4c(C)nc5ccccc54)nc3c2cc1OC
    /, 8
CC1(C)CC2CC(C)(CN2C(=O)COC(=O)c2ccc3c(c2)S(=O)(=O)N=C2CCCCCN23)C1 (stereo not drawn)
    /, -6

# Remaining list, next part.
# Every second line gives: MgrA-DNA mod, S aureus helic
c1ccc2c(NC3CCCCC3)nc(-c3ccncc3)nc2c1
    /, 10
O=c1[nH]c2ccccc2c2cn(-c3ccccc3)nc12
    /, -18
O=C(NCCN1CCN(C(=O)c2ccccc2F)CC1)C(=O)Nc1ccc(F)cc1
    3.6, /
Cc1csc2c(N3CCN(C(=O)NC(C)(C)C)CC3)ncnc12
    -0.3, /
COc1ccc(/C=C/C(=O)Nc2ccc(Cl)cn2)cc1OC
    0.1, 13
CCN(CC)S(=O)(=O)c1ccc(C(=O)Nc2nc(-c3ccccc3)cs2)cc1
    /, -14
CC(C)N1CCc2c(sc(N)c2C(N)=O)C1
    18, -132
O=C(c1cc2cc(Br)ccc2oc1=O)N1CCSC1c1cccc([N+](=O)[O-])c1 (stereo not drawn)
    -1.0, /
O=C(COC(=O)c1cccnc1Cl)NCc1ccc(Cl)cc1
    -3.7, 4
Cc1noc(N)c1C(=O)OCc1ccc(COC(=O)c2c(C)noc2N)cc1
    /, -28
O=C(Nc1c2c(nn1-c1ccccc1)CS(=O)C2)c1ccccc1 (stereo not drawn)
    /, 7

# Screening data as filed in PubChem BioAssay.

# A portion of the library (hit frequency here may not be typical).
